Bioassay records deposited in PubChem BioAssay by several laboratories.
UUG fidelity: modulators of start codon recognition fidelity in yeast | S. cerevisiae UUG-firefly luciferase reporter, luminescence/redox ratio | activity score, % at 18.7 µM | actives 0.13% (n = 350,000) | AID 602363;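 active = replicate mean at a twofold rise or more, about +100% in these data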;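 note: firefly luciferase made from a UUG start codon reports start codon fidelity; reporter light over untreated wells divided by growth signal over untreated wells; some hits fall short of that in this replicate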
CSC inhib: blocks cancer stem cells; inhibition, % at 7.5 µM; actives 1.1% (n = 300,000); cancer stem cell-like cells viability, luminescence;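 active = mean at 75% or more and at least half the replicates too; tested in HMLE shEcad cells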;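 note: 0% = median of negative and 100% = median of positive control wells; the first replicate is given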
PABP polyA inh: blocks human PABP binding to poly(A) RNA | P11940 | fluorescence polarization | inhibition, % at 35 µM | actives 1% (n = 290,000) | AID 2014;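 active = 50% or more with normal probe brightness, or confirmed in later tests; about a fifth of its hits are not listed in these tables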;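 note: calls also rest on retests at 20 µM and on dose response follow-up; controls were probe without protein and protein plus probe with vehicle; some compounds called inactive have numbers as strong as hits; many hits fall short of the cut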
Rce1 inh: blocks yeast Ras-converting enzyme; Q03530; yeast membranes, quenched prenylated peptide cleavage fluorescence; calls only; actives 0.27% (n = 290,000); AID 2563;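 active = fall in fluorescence gain of 50% or more versus controls, with final raw signal at or below 3038400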;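 note: plate controls were neutral control wells for no effect and wells lacking membranes for full effect; tested at 10 µM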
Target sequence (Q03530 whole entry, looked up): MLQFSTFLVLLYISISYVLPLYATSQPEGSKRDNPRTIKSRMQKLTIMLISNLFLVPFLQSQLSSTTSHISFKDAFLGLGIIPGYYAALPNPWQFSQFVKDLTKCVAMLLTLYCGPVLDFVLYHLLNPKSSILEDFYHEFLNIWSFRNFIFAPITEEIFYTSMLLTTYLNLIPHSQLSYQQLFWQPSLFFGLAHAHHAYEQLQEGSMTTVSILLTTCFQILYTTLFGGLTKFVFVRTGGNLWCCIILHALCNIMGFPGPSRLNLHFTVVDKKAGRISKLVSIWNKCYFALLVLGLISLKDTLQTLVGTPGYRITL
eIF4H FP inh: inhibitors of RNA binding by human eIF4H; eIF4H fluorescence polarization binding assay; inhibition, % at 35 µM; actives 0.94% (n = 290,000); AID 2012;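 active = 50% or more with normal probe brightness, or confirmed in later tests; about a fifth of its hits are not listed in these tables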;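 note: calls also rest on retests at 20 µM and on dose response follow-up; 0% = protein and probe with vehicle and 100% = probe without protein; strong numbers were not always called active; many hits fall short of the cut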
MT1-MMP act inh: inhibitors of human MT1-MMP activation. P50281. HT1080 RFP-PRO-GFP cells, GFP/RFP ratio fluorescence, overnight; percent of plate control window, DMSO zero. GFP/RFP ratio change, % at 20 µM. actives 0.061% (n = 360,000). AID 651647;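 active = GFP/RFP ratio change of at least 30% with cell ATP level not reduced by more than half and red fluorescence within 50% of control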; note: strong numbers were not always called active
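Test system: HT1080 cells expressing an RFP-PRO-GFP fluorescent reporter construct / Compound dosing: single-point 20 µM compound, 1% DMSO / Schedule: cells overnight before dosing, compound overnight, 37 °C, 5% CO2 / Evaluation: GFP/RFP fluorescence ratio / Control set: DMSO and RFP-L50D-GFP cell wells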
HIV Env fusion: blocks HIV Env-driven cell-cell fusion; HeLa-JRFL Env/CEM21 cell fusion, luciferase; inhibition, % at 12.3 µM; actives 1.1% (n = 360,000); AID 651610;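 active = mean replicate inhibition score of at least 50 and every replicate individually at or above 50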;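 note: 0% = plate neutral controls and 100% = maraviroc near 300 nM; one replicate is shown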
eIF4H FP inh retest: further read-out of eIF4H FP inh, marked with its call; inhibition, %; compound at 20 µM; confirmation average;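 mean of two retest wells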
PABP polyA inh retest: recorded beside PABP polyA inh, whose call it bears; inhibition, %; compound at 20 µM; confirmation repeats;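 mean of two retest wells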
MT1-MMP act inh RFP: also measured in MT1-MMP act inh; calls as there; RFP signal change, %; measured here: RFP expression control read;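 0 = vehicle wells; hits needed this value within 50% of zero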
Starred values were filed as active, the others as inactive; i = inactive; . = not tested or not shown; + = active, no number.

SMILES	UUG fidelity	CSC inhib	PABP polyA inh	Rce1 inh	eIF4H FP inh	MT1-MMP act inh	MT1-MMP act inh RFP	HIV Env fusion	others
CCOC(=O)Cc1c(C)c2c(O)cc(O)cc2oc1=O	-8	-8	-10	i	-4	5	-4	-8
CCOc1cc(NS(=O)(=O)c2ccc(NC(C)=O)cc2)c(OCC)cc1NC(=O)C(C)C	-10	-6	6	i	6	-4	3	-30
COc1ccccc1C(=O)Nc1ccc2c(c1)OCO2	-13	0	18	i	-3	-1	2	-108
CCOC(=O)COc1coc(CN2CCN(c3ccccc3)CC2)cc1=O	-14	-21	22	i	9	-3	0	4
COc1cccc(Nc2nc(-c3ccc(O)cc3)cs2)c1	-9	117*	-4	i	2	2	-6	-46
O=C(N/N=C/c1ccc(Cl)c([N+](=O)[O-])c1)c1ccc2nc[nH]c2c1	-10	15	-22	i	-7	7	-1	7
O=C(NC1CCCC1)C(c1cccnc1)N(C(=O)c1ccco1)c1ccc(F)cc1 (stereo not drawn)	.	-12	20	i	24	2	2	-17
Cc1ccc(-c2nc(CSc3nc4ccccc4c(=O)n3CCO)cs2)cc1	.	-17	-4	i	-4	3	2	-3
CN(C)CC/C=C1/c2ccc(F)cc2Sc2ccc(Cl)cc21	-11	-13	.	.	.	1	1	8
Cc1ccccc1NC(=O)COC(=O)COc1ccc2c(c1)CCC2	-18	.	.	.	.	0	-2	-9
Cc1cc(C(=O)CN2C(=O)CN(C)C2=O)c(C)n1-c1cccc(S(=O)(=O)N2CCOCC2)c1	.	-1	5	i	-3	0	-5	-4
COC(=O)c1ccccc1NC(=O)Nc1cccc(C)n1	-19	-15	-3	i	0	-1	1	-7
CCOC(=O)N1CCN(S(=O)(=O)c2ccc(OC)c3ccccc23)CC1	-7	.	-5	i	6	-3	-2	.
CC(C)(C)OC(=O)NN1CC(=O)N2Cc3[nH]c4ccccc4c3C[C@H]2C1=O	12	1	-4	i	0	5	3	6
CCCc1sc(N/N=C/c2ccccn2)nc1-c1ccc(F)cc1	29	93*	4	i	8	-10	-18	.
O=C(CNc1cccc(S(=O)(=O)N2CCCC2)c1)Nc1ccc(F)c(F)c1	-8	-3	.	i	.	11	-5	5
Cn1c(=O)[nH]c(=O)c2c1nc(CN1CCN(c3ccc(F)cc3)CC1)n2CCc1ccccc1	14	-6	-16	i	-1	7	1	-77
COc1ccc(/C=C2\SC(=O)N(CCNC(=O)Cc3coc4cc(OC)ccc34)C2=O)cc1	-9	20	-9	i	7	-4	-11	-15
O=C(C[n+]1cccc(/C=N/O)c1)N1CCCc2ccccc21	.	10	-16	i	-5	2	4	-5
Nc1cc(S(=O)(=O)O)cc([N+](=O)[O-])c1O	.	-7	23	i	1	-1	2	-5
O=C(CN=C1NS(=O)(=O)c2ccccc21)OCC(=O)c1ccccc1	.	-13	3	i	0	5	1	2
Cc1cc(=O)oc2cc(OCC(=O)N3CC[C@@]4(O)CCCC[C@H]4C3)ccc12	-24	2	3	i	-13	3	5	.
COc1cc(CNCc2ccc(C)cc2)cc(OC)c1OC	-4	-2	4	i	-2	3	-2	27
CCCNC(=O)NCc1ccc(N2CCCC2=O)cc1	8	7	-4	i	6	1	4	-8
O=C(COC(=O)c1ccc[n+]([O-])c1)Nc1cc([N+](=O)[O-])ccc1Cl	-2	-12	.	.	.	4	0	2
Cc1ccc(NS(=O)(=O)c2cccc(C(=O)NN3CCOCC3)c2)cc1	.	-1	4	i	18	.	.	2
Cc1ccc(/C=C2\SC(=S)N(CCC(=O)N3CCOCC3)C2=O)cc1	-16	22	-3	i	-3	1	-3	12
COc1ccccc1NC(=O)Cc1noc(CN(C)Cc2cccs2)n1	-9	-11	-5	i	-7	-3	3	i
CN(C)S(=O)(=O)c1ccc(N=Cc2c(C(F)(F)F)[nH]n(C)c2=O)cc1	-13	-14	-3	i	-7	2	1	1
CC(=O)Nc1ccc(S(=O)(=O)n2nc(C)cc2C)cc1	-14	-18	-4	i	-8	-1	6	.

2 compounds picked at random from those above, as already listed:
SMILES	UUG fidelity	CSC inhib	PABP polyA inh	Rce1 inh	eIF4H FP inh	MT1-MMP act inh	MT1-MMP act inh RFP	HIV Env fusion	others
O=C(C[n+]1cccc(/C=N/O)c1)N1CCCc2ccccc21	.	10	-16	i	-5	2	4	-5
CN(C)S(=O)(=O)c1ccc(N=Cc2c(C(F)(F)F)[nH]n(C)c2=O)cc1	-13	-14	-3	i	-7	2	1	1

Going on with the list.
SMILES	UUG fidelity	CSC inhib	PABP polyA inh	Rce1 inh	eIF4H FP inh	MT1-MMP act inh	MT1-MMP act inh RFP	HIV Env fusion	others
COc1ccc(NC(=S)NCC(O)c2ccccc2)c(OC)c1 (stereo not drawn)	-23	-2	6	i	0	1	0	-1
COc1ccc(Nc2oc(-c3ccc(OC)cc3)nc2C#N)cc1	.	23	-1	i	0	-2	-2	-41
CCOC(=O)c1c(C)[nH]c(C(=O)COC(=O)c2ccc(F)c(S(=O)(=O)N3CCOCC3)c2)c1C	-14	-5	-2	i	6	0	-3	.
COc1ccc(C(=O)NCCS(=O)(=O)NC2CCCC2)cc1	-3	5	.	i	.	5	-2	-7
CCOC(=O)N1CCC(NC(=O)CCC(=O)N2CCOc3ccc(C)cc32)CC1	9	-22	-4	i	-2	2	4	.
COc1ccc(C(=O)COC(=O)CNC(=O)c2ccc(OC)cc2)cc1	-4	-18	4	i	2	-2	1	8
Cn1c(=O)cc(OCCCC(=O)NCCN2CCN(c3ccccc3F)CC2)c2ccccc21	11	-13	0	i	-9	9	6	.
COc1ccc(CNC(=O)CN2C(=O)NC(c3ccccc3)(c3ccccc3)C2=O)cc1	-17	-9	.	.	.	-6	-2	-9
CCCCNC(=O)C(CC)Sc1nc2sc(C(=O)OC)c(C)c2c(=O)n1N (stereo not drawn)	-13	-16	-8	+	0	-6	-17	-17
O=[N+]([O-])c1ccc(NN=Cc2cccc3ccccc23)nc1	-14	.	.	.	.	-18	-4	-13
O=C(COC(=O)c1cc(=O)[nH]c2ccccc12)Nc1ccccc1F	-11	9	.	.	.	1	4	1
c1ccc(Nc2ccccc2)cc1	-14	11	.	i	.	2	9	-7
CCCc1nc(NCc2ccccc2)c(C#N)c2c1CCCC2	-8	26	-3	i	4	-2	-1	15
COc1ccc(/C=C2\SC(=O)N=C2N)cc1OC	.	-6	2	i	3	-13	-2	-10
CC1(C(=O)CSc2ncn[nH]2)CCC(=O)O1 (stereo not drawn)	.	-6	14	i	1	.	.	.
C#CCOCCOCCOCCNc1nc(N2CCN(C(=O)C([C@@H](C)O)n3cc([C@@H](N)CCCCN)nn3)CC2)nc(N2CCN(C(=O)[C@H](CCCCN)n3cc([C@@H](N)CC(N)=O)nn3)CC2)n1 (stereo partly drawn)	70	-20	.	.	.	-2	0	.
O=C(O)CCCC(=O)N1CCC(C(O)(c2ccccc2)c2ccccc2)CC1	-11	-7	2	i	-10	-8	-1	15
COC(=O)CSc1nc2ccc(NC(=O)CSc3nnnn3Cc3ccccc3)cc2s1	-19	2	3	i	-6	3	1	-84
COc1ccccc1OCC(=O)Nc1cccc(S(=O)(=O)NC2=NCCCCC2)c1	-11	13	.	i	.	-2	-2	16
CC(=O)Oc1ccc(/C=C2/SC(=S)N(Cc3ccccc3)C2=O)cc1	3	24	4	i	4	-110	7	9
COCCCNC(=O)CN(Cc1ccc(Cl)cc1)S(C)(=O)=O	3	-1	-6	i	-2	2	6	.
COc1ccc(OC)c(S(=O)(=O)Nc2cc(OC)c(Cl)cc2OC)c1	-5	-3	-4	i	2	7	1	.
CCOc1ccc(-n2c(Cc3cc(=O)[nH]c(=O)[nH]3)nnc2SCC(=O)Nc2nnc(C)s2)cc1	.	-7	-4	.	-4	1	2	-19
COC(=O)c1cccc(N(C(=O)CNC(=O)c2ccco2)C(C(=O)NC2CCCC2)c2ccco2)c1 (stereo not drawn)	8	-20	5	i	3	3	10	-26
COc1ccccc1NC(=O)CC(NCc1ccccc1)C(=O)O (stereo not drawn)	-7	-5	8	i	0	0	4	.
O=C1Cc2cc(S(=O)(=O)Nc3ccc(N4CCOCC4)cc3)ccc2N1	-6	-21	.	.	.	-3	2	.
N#CCNC(=O)c1nn2c(C(F)(F)F)cc(-c3ccccc3)nc2c1Br	-8	-10	4	i	-7	3	3	3
Cc1nn(Cc2ccc(Cl)cc2)c(C)c1NC(=O)C(c1ccccc1)c1ccccc1	0	-1	-8	i	1	3	-5	.
O=C(C/C=N\OCc1ccc([N+](=O)[O-])cc1)Nc1ccccc1	-15	-25	-2	i	-2	-1	1	8
CCN1C(=O)S/C(=C\c2ccc(N3CCOCC3)cc2C)C1=O	-35	11	-16	i	6	-18	-3	-165
O=[N+]([O-])c1cc(-c2ccn[nH]2)ccc1Cl	.	-4	-3	i	1	3	3	1
C/C(CC(=O)Nc1ccc(C)c(Cl)c1)=N\NC(=O)Cc1cccs1	-19	-12	-3	i	-4	0	0	-9
CC(C)(C)CNC(=O)c1cccc2c1C(=O)c1ccc(-c3cc4ccccc4o3)cc1S2(=O)=O	-15	.	.	.	.	1	1	-51
Cc1ccc(NCc2cccnc2)cc1	-14	-2	112	i	117	-2	3	.	eIF4H FP inh retest=-2;PABP polyA inh retest=-4
Cc1ccc(NC(=O)CCCOc2ccccc2)cc1S(=O)(=O)N1CCOCC1	5	.	.	.	.	1	-2	10
Cc1ccc(C(=O)NC(=S)Nc2cc(C(F)(F)F)ccc2Cl)cc1	-6	1	-2	i	-3	-2	-1	.
Cc1ccc(S(=O)(=O)N2CCCN(S(=O)(=O)c3ccc(C)c(C)c3)CC2)cc1C	-9	.	-10	i	-5	0	-5	44
Cc1ccc(OC(=O)c2ccc([N+](=O)[O-])cc2Cl)cn1	-20	-5	-3	i	-3	-2	-2	-10
COc1cccc(C2=NOC(C(=O)NCc3ccccn3)C2)c1 (stereo not drawn)	-21	-3	-1	i	1	3	3	-55
CCC(C)N(C(=O)COC(=O)CNC(=O)c1ccccc1F)C1CCS(=O)(=O)C1 (stereo not drawn)	.	6	0	i	-6	2	0	-4
COC(=O)CN1C(=O)N/C(=C/c2cc(OC)c(OC)cc2C)C1=O	.	-16	-4	i	-5	1	5	0
COc1cc2c(cc1CNC[C@H]1O[C@@H](n3ccc(N)nc3=O)[C@H](O)[C@@H]1O)OCO2	-2	.	.	.	.	-1	2	12
COc1ccc(C(=O)N(C)CCCC2CCCC2)cc1OC1CCN(C(C)C)CC1	-7	10	-10	i	-2	-5	-7	-1
CC12CCC(=O)N1C(C(=O)Nc1ccc(Cl)c(S(=O)(=O)N3CCCCC3)c1)CS2 (stereo not drawn)	.	26	.	i	.	-3	-14	28
CCOC(=O)Cc1c(C)nc2c(-c3ccc(Cl)cc3)c(C)nn2c1C	.	38	0	.	-2	-3	-11	13
O=[N+]([O-])c1ccc(O)c(/C=N/Nc2ccccn2)c1	-48	118*	2	i	11	-12	-13	-27
CCCN(CC(=O)Nc1ccccc1C)C(=O)c1cccc(S(=O)(=O)N2CCN(c3ccccc3)CC2)c1	.	3	.	i	.	6	-11	1
C[C@@H](C(=O)N1CCNCC1)n1cc(CCCN=C(N)N)nn1	23	-5	24	i	11	9	9	1
CCCCOC(=O)CSc1nnc(N)s1	-10	.	6	i	-11	1	2	-8
CC1=CCC[C@@H]2[C@@](C)(CC/C(C)=C/C(=O)O)[C@H](C)CC[C@@]12C	11	24	-1	i	7	3	3	-17
CN(C)S(=O)(=O)c1ccc(NC(=O)N2CCOCC2)cc1	.	5	-10	i	1	0	2	0
COc1cc(C2=NOC(C(=O)NCc3ccco3)C2)cc(OC)c1OC (stereo not drawn)	-5	65	-8	i	5	-9	-13	5
